# UCH37 DUB inh: inhibitors of human deubiquitinating enzyme UCH37 | Q9Y5K5 | purified proteasome/UCH37, Ub-AMC cleavage fluorescence | inhibition, % (concentration not given with the values) | hit rate 0.33% among 330,000;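 active = mean of two replicates above 20%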;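 also: 0% = compound-free wells with enzyme and 100% = wells lacking proteasome; stock transfer was 100 nL into about 20 µL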
# Target sequence (Q9Y5K5 whole entry, looked up): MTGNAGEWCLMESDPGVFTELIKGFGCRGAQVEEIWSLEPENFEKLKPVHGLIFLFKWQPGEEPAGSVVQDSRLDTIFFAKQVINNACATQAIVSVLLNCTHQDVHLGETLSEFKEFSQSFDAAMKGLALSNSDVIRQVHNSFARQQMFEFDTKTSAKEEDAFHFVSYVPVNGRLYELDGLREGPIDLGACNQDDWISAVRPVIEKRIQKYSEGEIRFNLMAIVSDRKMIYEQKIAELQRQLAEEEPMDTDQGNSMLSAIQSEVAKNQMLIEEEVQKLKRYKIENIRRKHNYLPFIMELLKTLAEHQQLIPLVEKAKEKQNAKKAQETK
#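 system = Proteasome-associated human UCH37 deubiquitinase | amount = 0.15 nM proteasome as dispensed | medium = pH 7.4 Tris-HCl (50 mM) with ovalbumin, ATP-MgCl2, DTT | incubation = 30 min preincubation with enzyme, 25 min cleavage at room temperature | detection = AMC fluorescence 355/460 nm | read-out basis = percent inhibition | controls = no-proteasome and no-compound wells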
# Vif TR-FRET: HIV-1 Vif–A3G interaction blockers – biochemical, TR-FRET, GST-Vif 1-94, biotin-A3G peptide, dose response retest, primary screen (AID 1117319) | TR-FRET GST-Vif / biotin-A3G peptide binding; higher % means a stronger effect; test concentration not given here; strong numbers were not always called active | inhibition, %; hits with a dose series show IC50 in µM | hit rate 0.57% among 260,000;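 active = above the screen mean plus three standard deviations and confirmed in dose response; inconclusive = results disagree or hit not tested in dose response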;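 also: Vif residues 1-94 fused to GST binding biotinylated APOBEC3G peptide 110-148; 0% = full assay without inhibitor and 100% = GST in place of GST-Vif; retest series ran down from 100 µM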
# HNF4A DNA FP: change in binding of human HNF4 alpha to DNA | activity change, % at 10 µM | AID 1224865 | hit rate 0.3% among 360,000 | HNF4a-FITC DNA binding, fluorescence polarization, 1 h; in the data active = activity change above about 30%, passing the limit was not always enough;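 also: controls were the assay level and a saturating level of protein; the project sought stronger binding though the title names inhibitors; some compounds called inactive have numbers as strong as hits; positive values seem to mean higher polarization but the record does not say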
# B2AR ag: agonists of human beta-2 adrenergic receptor inducing internalization; Am2.2-beta2AR cells, FAP receptor internalization, flow cytometry; reference of the scale not given here; hit rate 0.43% among 340,000; response, % (concentration not given with the values); P07550;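 active = response above a set limit, near 3 SD of response in nonfluorescent compounds, cut at about 42% in these data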;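 also: stock transfer was 100 nL into about 11 µL; a reference agonist was the positive control; negative values mostly stem from fluorescent compounds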
# Target sequence (P07550 whole entry, looked up): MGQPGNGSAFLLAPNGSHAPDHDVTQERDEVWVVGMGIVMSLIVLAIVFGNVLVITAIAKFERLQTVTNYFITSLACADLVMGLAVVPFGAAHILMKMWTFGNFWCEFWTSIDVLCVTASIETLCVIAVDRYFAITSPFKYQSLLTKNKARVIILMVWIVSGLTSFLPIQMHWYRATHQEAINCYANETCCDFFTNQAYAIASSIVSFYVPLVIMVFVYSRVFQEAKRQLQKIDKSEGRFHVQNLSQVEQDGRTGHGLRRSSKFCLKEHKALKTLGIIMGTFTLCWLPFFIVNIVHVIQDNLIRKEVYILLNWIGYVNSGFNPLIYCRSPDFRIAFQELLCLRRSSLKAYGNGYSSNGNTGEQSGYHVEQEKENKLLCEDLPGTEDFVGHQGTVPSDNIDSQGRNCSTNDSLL
# E coli growth: inhibitors of Escherichia coli growth. OD600, 23 h; hits give low values. OD600 absorbance (concentration not given with the values). hit rate 0.21% among 330,000. AID 1053175;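 active = OD600 absorbance below the run mean of sample wells minus 3.6 SD, in any replicate, cut at about 0.56 in these data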;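 also: stock transfer was 300 nL into about 60 µL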
# A1 inh: inhibitors of the anti-apoptotic protein A1, read as caspase activation; AID 2462; hit rate 0.066% among 330,000; MEF A1-2A-BIM cells, Caspase-Glo 3/7 luminescence, 3 h; percent of clofoctol response, vehicle zero; caspase activation, % (no concentration beside the values);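 active = over half of replicate activation scores above 10%, or exactly half above 10 with the replicate mean above 10; inconclusive = replicate mean below 10 yet half the replicates above 10; inactive = over half of replicates below 10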;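 also: wells of about 30 µL received 50 nL stock; many hits fall short of the cut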
# LANA-H2A inh: blocks KSHV LANA binding to histone H2A/H2B; inhibition, % (test concentration not listed); hit rate 0.6% among 320,000; cell-free LANA-H2A/H2B peptide, fluorescence polarization; in the data active = inhibition mostly above about 10%, no sharp cut-off; inactive = mostly below about 6.7%;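 also: stock transfer was 7.5 nL into about 10 µL; 0% = median of vehicle wells and 100% = median of positive control wells; one replicate is shown; the record names a cut of 25% in any replicate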
# Active calls of the source: *; ? = inconclusive; . = no result given; + = active, no number; & = joins results of further samples. The order is random (roughly 2.1% active in at least one column).
item	SMILES	E coli growth	A1 inh	B2AR ag	UCH37 DUB inh	HNF4A DNA FP	LANA-H2A inh	Vif TR-FRET
1	CC(=O)c1cccc(NC(=O)/C(=C\c2ccco2)NC(=O)c2ccco2)c1	0.72	0.2	3	9.9	-0.7	0.2	-1%
2	CN(C)C(=O)N1CCCC(C(=O)NCc2cccs2)C1 (stereo not given)	0.71	0.3	-2	-0.3	-5.3	-5.3	-1%
3	COc1ccc(-c2nn(-c3ccccc3)cc2/C=C\C(=O)Nc2ccc(C(=O)O)cc2)cc1	0.65	-0.9	-2	-12	0.1	-1.3	0%
4	C=CCn1c(-c2ccccc2OCC)n[nH]c1=S	0.72	0.9	-2	3.5	2.0	-3.0	5%
5	O=C(COc1ncnc2ccccc12)NC(=O)NCc1ccccc1	0.69	-0.3	1	0.9	0.0	-2.4	-7%
6	O=S(=O)(NCC(c1ccco1)N1CCc2ccccc2C1)c1ccc(Br)cc1 (stereo not given)	0.68	0.3	5	2.3	1.2	-2.6	6%
7	COc1cc(C(=O)NCC(c2ccco2)N(C)C)cc(OC)c1OC (stereo not given)	0.72	0.8	9	-3.4	8.2	4.2	.
8	CC1=CC(C)(C)Nc2cc(C)c(C)cc21	0.75	0.5	16	-35	-2.9	-1.4	21%
9	Cc1ccc(Oc2ccc(Cl)cc2N)cc1	0.68	0.0	1	0.6	1.9	-2.1	2%
10	Cc1ccc(NC(=O)NCCCc2ccccc2)cc1	0.65	0.5	-14	-1.0	0.3	0.4	4%
11	CCNC(=O)NNC(=O)C1CC(c2cccs2)=NO1 (stereo not given)	0.71	-0.3	0	3.5	0.0	0.5	1%
12	CC(Sc1nc2ccccc2c(=O)n1CCc1ccc(S(N)(=O)=O)cc1)C(=O)NC(N)=O (stereo not given)	0.7	-0.2	-6	2.0	-1.0	1.4	-1%
13	COc1ccc(C)cc1NC(=O)c1cnc2n(c1=O)CCS2	0.72	-0.1	-14	-16	0.2	-0.6	22%
14	COc1ccc(OCC(=O)N/N=C/C(C)=C/c2ccco2)c(Br)c1	.	-0.7	-5	.	4.1	3.6	.
15	COc1ccccc1NS(=O)(=O)c1cc(NC(=O)CCNC(C)=O)ccc1C	0.69	-0.5	2	0.9	-3.8	1.0	0%
16	CCOc1ccc(N=C2SC(C(=O)O)CC(=O)N2C)cc1 (stereo not given)	0.75	-0.4	15	-0.5	2.7	1.9	9%
17	CC1(C)N(O)CC(c2cccs2)=[N+]1[O-]	0.67	-0.2	1	0.1	-3.4	3.3	-4%
18	CC(=O)Nc1ncc2c(n1)CC(c1ccco1)CC2=O (stereo not given)	0.74	0.5	11	-2.8	-0.3	1.9	22%
19	CCc1ccc(N2CC(C)Cn3c2nc2c3c(=O)[nH]c(=O)n2C)cc1 (stereo not given)	0.67	0.1	12	5.1	-1.1	1.6	-4%
20	CCN(CC)CCCOC(=O)c1ccc(OC)cc1O	0.65	-0.3	0	-0.6	-2.3	1.0	0%
21	C/C=C/COC(=O)C1=C(C)NC(=O)NC1c1ccc2c(c1)OCO2 (stereo not given)	0.7	-0.7	-5	2.2	1.0	5.4	.
22	C=CCCCCCCCCc1nc(SCC(=O)O)n[nH]1	0.68	1.0	2	-0.7	-3.1	6.6	-6%
23	CCCCOc1ccccc1C1CC(=O)NC2=C1C(=O)CCC2 (stereo not given)	0.69	0.5	-3	.	1.7	1.5	7%
24	CCOC(=O)c1[nH]c2ccccc2c1NC(C)=O	0.73	-0.1	6	3.9	6.5	2.0	.
25	CSc1nsc(SCC(=O)Nc2cc(C(=O)O)ccc2C)n1	.	-0.1	-2	.	-2.7	10.0	.
26	Cc1ccc(NC(=O)CSc2cccc[n+]2[O-])c([N+](=O)[O-])c1	0.65	0.0	-3	1.1	-0.8	1.5	3%
27	CSc1ccc(CN(C)CC(=O)Nc2ccccc2Br)cc1	0.66	0.6	2	1.7	2.0	6.0	.
28	CCOc1ccc(NC(=O)CC2C(=O)N(c3ccc(OC)cc3)C(=S)N2Cc2ccccn2)cc1 (stereo not given)	0.69	0.4	7	0.8	3.5	-4.2	-5%
29	Cc1ccsc1C1Nc2ccc3ncccc3c2C2=C1C(=O)CC(C)(C)C2 (stereo not given)	0.68	-0.1	1	-56	-2.5	5.5	1%
30	Cc1ccc2nc(-c3ccc(NC(=O)CSCC(=O)O)cc3)sc2c1	0.72	-4.8	-4	-202	5.0	5.4	4%
31	Cc1nc2ccccn2c1C(=O)C(=O)Nc1cc(F)ccc1F	0.72	-0.2	-7	5.0	-7.6	3.8	9%
32	COc1cc(C2NC(=O)NC(C)=C2C(=O)OC(C)C)ccc1OC(=O)c1ccco1 (stereo not given)	0.68	0.7	1	4.3	2.9	1.0	-11%
33	CCCc1cc(=O)[nH]c(SCC(=O)N2CC3(C)CC2CC(C)(C)C3)n1 (stereo not given)	0.7	1.4	-1	0.5	-0.7	2.7	0%
34	N[C@@H](Cc1cc(I)c(Oc2cc(I)c(O)c(I)c2)c(I)c1)C(=O)O	.	1.1	.	2.3	.	-3.7	.
35	CN(Cc1ccc(OC(F)F)cc1)C(=O)c1ccc2c(=O)n3c(nc2c1)CCC3	0.7	-0.2	-6	-2.2	0.8	-2.3	0%
36	O=C(NC1CCN(Cc2ccccc2)CC1)C1CCCN(S(=O)(=O)c2cccc3nonc23)C1 (stereo not given)	0.72	0.0	-12	0.7	2.1	-1.9	10%&3%
37	COC(=O)CNC(=O)c1ccc(OC2CCN(C(=O)C3CC3)CC2)cc1	0.71	-0.2	3	1.2	-3.1	-2.2	-4%
38	O=C(/C=C/c1ccc(Cl)cc1Cl)NCc1ccncc1	0.67	-0.2	5	5.0	2.9	-3.7	0%
39	O=C(O)c1cccc(S(=O)(=O)NNc2ccccc2C(F)(F)F)c1	0.7	1.2	5	0.2	-1.9	-3.4	.
40	CCOc1ccc(C(=O)CC(=O)C(=O)NCCc2ccc(OC)c(OC)c2)cc1	0.71	-0.4	-1	8.3	-11	-1.2	8%
41	O=C(Cc1ccc(Cl)cc1)Nc1ccccc1C(=O)Nc1ccc(C(=O)O)cc1	0.69	1.4	1	1.7	-1.9	-1.1	-5%
42	Cc1ccc(C2(c3ccccc3)NC(=O)N(CC(=O)NC3(C#N)CCCC3)C2=O)cc1C (stereo not given)	0.7	-0.1	-2	5.8	-0.2	+	-1%
43	CN(C)S(=O)(=O)c1cccc(N=C2NN=C(c3ccccc3)CS2)c1	.	-0.3	.	-0.3	.	44*	.
44	COc1ccccc1N1CCN(C(=O)c2ccc(N(C)S(=O)(=O)c3ccccc3)cc2)CC1	0.66	0.9	3	0.2	1.0	-1.2	-11%
45	CCOC(=O)c1sc(NC(=O)Cn2nnc3sc4c(c3c2=O)CCC(C(C)(C)C)C4)nc1C (stereo not given)	0.65	-1.1	-23	-2.0	-0.1	1.0	4%
46	Cn1c(=O)c2ncn(CC(=O)NCCC3=CCCCC3)c2n(C)c1=O	0.71	0.9	0	2.7	-3.9	-1.7	?
47	O=C(c1ccc(F)cc1F)N1CCN(S(=O)(=O)c2ccc3c(c2)OCCO3)CC1	0.67	2.4	0	0.2	-2.0	2.2	-5%
48	CC(C)N(CCCNC(=O)CC1Oc2ccccc2NC1=O)Cc1ccccc1 (stereo not given)	0.75	0.0	-1	3.2	1.7	-0.1	-1%
49	CC(=O)Nc1cccc(NC(=O)c2cc(C)on2)c1	0.67	0.1	13	2.6	3.8	1.7	?
50	CC(C)(CS(=O)(=O)[O-])NC(=O)CC[N+](C)(C)CCO	0.78	0.7	5	-1.1	-48	1.7	1.5µM*

# The last 2 entries of the part above lead into the next.
item	SMILES	E coli growth	A1 inh	B2AR ag	UCH37 DUB inh	HNF4A DNA FP	LANA-H2A inh	Vif TR-FRET
49	CC(=O)Nc1cccc(NC(=O)c2cc(C)on2)c1	0.67	0.1	13	2.6	3.8	1.7	?
50	CC(C)(CS(=O)(=O)[O-])NC(=O)CC[N+](C)(C)CCO	0.78	0.7	5	-1.1	-48	1.7	1.5µM*
51	COC(=O)c1ccccc1NC(=O)C1CCN(S(=O)(=O)c2cc(OC)ccc2OC)CC1	0.65	.	4	0.7	-1.8	7.2	-1%
52	Cc1ccc(S(=O)(=O)NC2CCCCC2)cc1C(=O)N1CCC(C(N)=O)CC1	0.7	0.3	4	2.1	3.4	1.4	-4%
53	CN(C)c1nnnn1Cc1ccccc1	0.72	-0.7	2	4.7	-0.3	0.2	7%
54	O=S(=O)(NCc1ccc(F)cc1)c1ccc2c(c1)OCCO2	0.72	-0.2	-3	2.9	-0.6	2.4	18%
55	Cc1ccccc1-c1nc(P(=O)(c2ccccc2)c2ccccc2)c(N2CCOCC2)o1	0.67	-0.3	4	-3.6	-0.8	0.1	-12%
56	Cc1ccc(OCC(=O)NN=C2C3CC4CC(C3)CC2C4)cc1	0.71	0.3	4	2.5	1.2	-0.3	2%
57	CCC(C)(C)n1nnnc1C(c1ccccn1)N1CCN(c2cccc(OC)c2)CC1 (stereo not given)	0.74	0.2	-3	3.4	-2.6	0.2	-6%
58	CCOC(=O)CSCC(NC(=O)OC(C)(C)C)C(=O)OCC (stereo not given)	0.75	-0.6	4	-0.1	0.1	-2.5	20%
59	COc1c(CC=C(C)C)c(O)cc2oc(=O)c3c4ccc(O)cc4oc3c12	0.75	-0.1	.	-124	1.9	-0.6	.
60	Cc1ccc(C2(c3ccccc3)NC(=O)N(CC(=O)NC3CCCCC3)C2=O)cc1C (stereo not given)	0.7	.	2	4.4	-0.4	.	-3%
61	Cn1cnc2ncnc(Oc3ccc(Br)cc3)c21	0.69	.	-3	0.2	-0.2	.	10%
62	COc1ccc(/C=C2\C(=O)NC(=O)c3ccccc32)cc1OC	.	.	18	.	-4.6	.	-10%
63	Cc1cc2nc(C)c(=O)n(C)c2cc1C	0.66	0.2	-1	-90	0.1	-3.4	-2%
64	CCN1CCc2c(OCC(=O)N3CCc4ccccc43)cccc2C1=O	0.7	0.4	.	-0.2	.	.	6%
65	O=C(CCNS(=O)(=O)c1cccs1)N1CCN(c2ccc(F)cc2)CC1	0.67	-0.1	1	-0.3	14	-4.7	-3%
66	CC1(C)CC(=O)C2=C(C1)NC(Nc1nc3ccccc3o1)=NC21CCCCC1	0.77	-0.3	-8	-46	4.6	7.1	-4%
67	CCCCCCCCS(=O)CCC(=O)O (stereo not given)	0.68	-0.4	1	1.9	-1.6	5.9	11%
68	Cc1cccc(N2CCN(c3ccc(N4C(=O)CCCC4=O)cc3[N+](=O)[O-])CC2C)c1 (stereo not given)	0.65	1.5	-6	3.5	0.4	-4.2	-2%
69	COc1cccc2sc(Nc3nc(C)c(C(C)=O)s3)nc12	0.72	-9.2	5	-15	4.3	0.2	9%
70	Cc1ccc(-c2csc(Nc3ccc(S(N)(=O)=O)cc3)n2)o1	0.66	0.3	3	2.0	18	-2.1	18%
71	FC(F)(F)c1cccc(Cn2nnnc2-c2cccc(C(F)(F)F)c2)c1	0.74	0.3	2	2.0	1.7	-6.3	22%
72	CCc1ccc([C@@H]2CC=C(C(=O)O)[C@H](c3ccc(Br)cc3)N2S(=O)(=O)c2ccc(C)cc2)cc1	0.69	1.3	1	10	-3.7	-2.8	-4%
73	O=C(COC(=O)Cc1ccsc1)Nc1ccc(F)cc1Cl	0.66	.	0	5.1	3.8	.	.
74	Cc1ccnc(NC(=O)Nc2ccc3c(c2)N(C)C(=O)CS3)c1	0.68	-2.2	5	-1.0	14	-2.7	8%
